Compound activity: PubChem BioAssay, Fisher Drug Discovery Resource Center
NPYLR7 agonist = mosquito NPYLR7 agonism; 0.15% of 270,000 active; activation, % at 10 µM; HEK293T NPYLR7/Galpha15, GCaMP6s calcium fluorescence; in the data active = activation above about 40%;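 note: 0% = vehicle and 100% = reference agonist at the receptor; some compounds past the cut are filed as inactive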
NPYLR7 agonist max-min = recorded beside NPYLR7 agonist, whose call it bears; activation, %; measured here: Max-Min RFU normalised activation; some inactives read as strong as hits;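 span of the calcium signal over five minutes; 0% = vehicle and 100% = native peptide agonist; compound fluorescence can raise it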
The depositor's hits bear a star; & = joins results of further samples. These rows are one share of the data (hit frequency here may not be typical).

SMILES	NPYLR7 agonist	NPYLR7 agonist max-min
CCCCCN=C(NC(=O)c1cccc(C(F)(F)F)c1)OC	21	20
COc1ccc(-c2nnc(NC(=O)c3ccco3)s2)cc1	-5	-7
Cc1cccc(S(=O)(=O)N2CCN(c3nc4ccccc4nc3C)CC2)c1	16	11
C=CCN1C(=O)C(=C2SC(=S)N(CC)C2=O)c2ccccc21	-7	-13
N#CC1C(=N)SC(=N)C(C#N)C1c1cc(Br)ccc1F (stereo not drawn)	4	6
O=C1NC2(CCN(Cc3ccccn3)CC2)Nc2ccc(Cl)cc21	0	5
COC(=O)c1ccc(NC(=O)c2nnn(Cc3ccccc3C)c2N)cc1	-2	2
COc1ccc(-c2nc(OCc3ccc(F)cc3)nn2-c2ccc(NC(=O)c3ccc(F)cc3)cc2)cc1	16	17
Cc1cccc(-c2nc3cc(C)ccn3c2NC(C)(C)CC(C)(C)C)c1	27&7	27&12
Cc1ccccc1C(=O)N(CC(=O)Nc1nc(CC(=O)O)cs1)C1CC1	-3	-13
Cc1nc(-n2ncc(C#N)c2N)c2c3c(sc2n1)CCCC3	-6	2
COc1cccc(C2SCCN2C(=O)Nc2cccc(Cl)c2Cl)c1OC (stereo not drawn)	-2	13
COc1ccc(NC(=O)C2CCN(C(=O)[C@@H]3CCCN3C(=O)Cc3nc(-c4cccc(C(F)(F)F)c4)oc3C)CC2)cc1	-8	-10
O=C(Oc1ccc(-c2nc(-c3ccccc3Cl)no2)cc1)c1ccccc1	-4	-6
CCN(CC)c1ccc2cc(C(=O)Nc3cccc(C(F)(F)F)c3)c(=O)oc2c1	7	5
c1ccc2c3c([nH]c2c1)CN(c1nc(C2CCCC2)nc2c1CNC2)CC3	-1	-2
COC(=O)c1cc2ccc(OC)c(OC)c2c(=O)s1	-2	-5
Nc1ncc(Br)cc1S(=O)(=O)Nc1ccccc1F	5	0
Cc1noc(-c2ccc3c(c2)OCO3)c1C(=O)NCCC1CCCN1C (stereo not drawn)	4	13
N#CC(NC(=O)c1cc(F)ccc1F)c1cnn(-c2ccccc2)c1 (stereo not drawn)	11	8
O=C(O)CCN1C(=O)C2C3C=CC(C2C1=O)C1C(=O)N(CCC(=O)O)C(=O)C31 (stereo not drawn)	0	-7
Cc1ccc(Cn2c(CO)cnc2SCC(=O)N2CCCCC2)cc1	0	-3
COc1ccc(Nc2cc(C)nc(-n3nc(C)cc3C)n2)cc1	5	6
c1cnc2nc(N3CCC(N4CCCC4)C3)ccc2n1 (stereo not drawn)	5	1
COCC(=O)Nc1ccc(-n2nc(OCCc3ccc(OC)cc3)nc2-c2ccc(Cl)c(Cl)c2)cc1	17	14

Single records, from the list above:
Cc1noc(-c2ccc3c(c2)OCO3)c1C(=O)NCCC1CCCN1C (stereo not drawn) across the screens: NPYLR7 agonist = 4; NPYLR7 agonist max-min = 13
O=C(O)CCN1C(=O)C2C3C=CC(C2C1=O)C1C(=O)N(CCC(=O)O)C(=O)C31 (stereo not drawn) across the screens: NPYLR7 agonist = 0; NPYLR7 agonist max-min = -7

More results follow.
SMILES	NPYLR7 agonist	NPYLR7 agonist max-min
CCOC(=O)CC(=O)CSc1nc2c(cc1C#N)CCC2	-4	-7
CC[n+]1c(C)ccc2ccccc21	2	0
Cc1nc2cc(OCc3nc(C(=O)N(C)Cc4cnccn4)co3)ccc2s1	1	-4
Cc1noc(-c2ccc3c(c2)OCO3)c1C(=O)NCc1cccc(Cl)c1	5	0
COc1ccc2nc(N(CCCn3ccnc3)C(=O)/C=C/c3cccs3)sc2c1	-14	-20
C=CCn1c(COc2ccc(C(C)(C)C)cc2)nnc1SC(C)C(=O)NC(N)=O (stereo not drawn)	0	3
CCCCc1cn(CC2CCN(C(=O)C3CC=CCC3)CC2)nn1 (stereo not drawn)	0	-1
CC(C)OCCCNC(=O)c1ccc(NS(=O)(=O)c2ccc(Br)s2)cc1	1	-1
C=C(C)CSc1nnc(NC(=O)c2ccccc2OC)s1	16	17
O=C(/C=C/c1cnc[nH]1)Nc1ccccc1N1CCCCC1	4	3
CCCCC(=O)N(C)c1c(C)nc2ccc(C(=O)N(CC)CCN(C)C)cn12	9	-4
CCOC(=O)C(=O)Nc1nc(-c2cc3cc([N+](=O)[O-])ccc3oc2=O)cs1	-17	-23
CCOC(=O)N1CCN(C2CCCN(C(=O)C3=CCCC3)C2)CC1 (stereo not drawn)	4&4	5&4
COc1cccc(CN(CC2CCCO2)C(=O)c2csc3c2CCCC3)c1 (stereo not drawn)	3	-2
NC(=O)CN1CCCN(C(=O)c2ccc(Cn3nnc4ccccc43)cc2)CC1	-6	1
CCOC(=O)c1cc(-c2cccc(NC(=O)c3ccc4sccc4c3)c2)n(-c2ccc(F)cc2)n1	26	14
CSc1cccc(NC(=O)NCCNc2cc(-n3cccn3)ncn2)c1	-8	-10
Cc1ccc(-n2nc(C3CC3)c(C(=O)N3CCCCC3)c2C)cc1	4	8
Oc1ccc(CN2CCCn3cccc3C2c2ccc(C(F)(F)F)cc2)cc1 (stereo not drawn)	33	33
O=C(O)c1cccc(Oc2ccc(Cl)c(Cl)c2)n1	6&4	4
CCOC(=O)NC(CNC(=O)Cc1c(C)nn(C(F)F)c1C)CC(C)C (stereo not drawn)	-4	-4
COc1cc2c(cc1OC)C(c1c(F)cccc1Cl)N(C(=O)c1cc(C(F)(F)F)cc(C(F)(F)F)c1)CC2 (stereo not drawn)	21	8
CCC(CC)N(C)C(=O)c1cn(CC)c2c(F)c(F)c(F)cc2c1=O	54	39
c1ccc(Cc2noc(CN3CCN(c4ncccn4)CC3)n2)cc1	1	1
Cc1cc(S(=O)(=O)Nc2ccccc2C(F)(F)F)c(C)cc1Cl	4	1

Part of the list above in order of count of non-hydrogen atoms, ascending:
SMILES	NPYLR7 agonist	NPYLR7 agonist max-min
CC[n+]1c(C)ccc2ccccc21	2	0
O=C(O)c1cccc(Oc2ccc(Cl)c(Cl)c2)n1	6&4	4
C=C(C)CSc1nnc(NC(=O)c2ccccc2OC)s1	16	17
O=C(/C=C/c1cnc[nH]1)Nc1ccccc1N1CCCCC1	4	3
Cc1cc(S(=O)(=O)Nc2ccccc2C(F)(F)F)c(C)cc1Cl	4	1
Cc1ccc(-n2nc(C3CC3)c(C(=O)N3CCCCC3)c2C)cc1	4	8
c1ccc(Cc2noc(CN3CCN(c4ncccn4)CC3)n2)cc1	1	1
CCOC(=O)NC(CNC(=O)Cc1c(C)nn(C(F)F)c1C)CC(C)C (stereo not drawn)	-4	-4
COc1cccc(CN(CC2CCCO2)C(=O)c2csc3c2CCCC3)c1 (stereo not drawn)	3	-2
CCCCC(=O)N(C)c1c(C)nc2ccc(C(=O)N(CC)CCN(C)C)cn12	9	-4
COc1ccc2nc(N(CCCn3ccnc3)C(=O)/C=C/c3cccs3)sc2c1	-14	-20
CCOC(=O)c1cc(-c2cccc(NC(=O)c3ccc4sccc4c3)c2)n(-c2ccc(F)cc2)n1	26	14
COc1cc2c(cc1OC)C(c1c(F)cccc1Cl)N(C(=O)c1cc(C(F)(F)F)cc(C(F)(F)F)c1)CC2 (stereo not drawn)	21	8

(list continues)
SMILES	NPYLR7 agonist	NPYLR7 agonist max-min
O=C(Cc1cccs1)NN=Cc1cc(Br)ccc1O	3	0
NC(N)=NC(N)=Nc1ccc(Br)cc1	0	-1
Cc1ccccc1-n1ncc(C(=O)N2CCCC2)c1C	31	26
O=C(Nc1cnn(CC(F)(F)F)c1)N1CCCC2CCCC21 (stereo not drawn)	-22	-23
C=CCNC(=O)C(NC(=O)c1cccs1)C1CCN(C(=O)c2ccc(OC)cc2)CC1 (stereo not drawn)	-8	1
COC(=O)c1ccc(COC(=O)c2cc(C)n(C3CC3)c2C)o1	8	6
COc1cc(OC)c(OC)cc1/C=C1N=C(/C=C/c2ccc(C)cc2)OC\1=O	-2	-6
CCCC(=O)N(CCCOC)CC(=O)N(Cc1cccn1Cc1ccccc1Cl)CC(C)C	-10	0
CS(=O)(=O)c1ccc(CN2CCN3C(C(=O)N4CCCCC4)=COC3=NC2=O)cc1	1	0
CCN1CC(C(=O)Nc2ccc(OC(F)(F)F)cc2)CC1=O (stereo not drawn)	-3	-4
COCc1cc(C)nc(OCC(=O)N/N=C\c2ccc(O)cc2)c1C#N	0	-7
CCOc1ccc(NC(=S)N2CC(=O)N3CCc4cc(F)ccc4C3C2)cc1 (stereo not drawn)	15	17
CCCc1nnc2c(C(=O)NCCC3=CCCCC3)cccn12	-6	-12
CC1(C)SCC(C(=O)NCc2cccnc2Oc2ccccc2F)NC1=O (stereo not drawn)	0	-1
O=C(Cc1ccc(N2CCNC2=O)cc1)N1CCCC(Nc2ccc(F)c(F)c2)C1 (stereo not drawn)	6	5
CO[C@H]1C(=O)N(C)C2(CCN(C(=O)/C=C/c3ccccc3)CC2)[C@@H]1C(=O)Nc1ccccc1	4	15
COc1ccc(S(=O)(=O)Nc2ccc(-c3cn4ccc(C)nc4n3)cc2)cc1C	2	0
O=[N+]([O-])c1ccc(Oc2ncnc3sc4c(c23)CCC4)c(Cl)c1	0	7
COc1cccc(NC(=O)NCc2nnnn2C2CCCCC2)c1OC	4	1
CCCCOc1ccc(C(=O)N2CCC(C(=O)NCCNC(=O)c3ccccc3)CC2)cc1	16	23
CN(Cc1cnn(-c2ccccc2)c1)Cc1ccnn1-c1ccccc1	-3	-11
CCCc1cc(=O)[nH]c2nnc(SCC(=O)NC(C)C)n12	-13	-11
CN(C)CCn1c2c(c(SCC(=O)Nc3nc4ccccc4s3)nc1=O)CCCC2	-3	1
CSc1ccc(CN2C(=O)C(C)ON=C2c2ccccc2)cc1 (stereo not drawn)	-6	-7
CC1(C)CC2CC(C)(CN2C(=O)c2coc(CN3CCNCC3)n2)C1 (stereo not drawn)	7	2

The list goes on:
SMILES	NPYLR7 agonist	NPYLR7 agonist max-min
CC(C)C(=O)N1CCN(C(=O)c2cc3ccc(F)cc3s2)CC1	3	2
CC(=O)Nc1ccc(CN(C)Cc2nncn2C(C)C)cc1	-4	-5
O=C(NC(C(=O)N/N=C\c1cc2c(cc1[N+](=O)[O-])OCO2)c1n[nH]c(=O)c2ccccc12)c1ccccc1 (stereo not drawn)	-6	-9
Clc1ccc(Cl)c(C=C2CCNCC2)c1	0	-3
CC(NC(=O)c1ccco1)C(=O)Nc1oc(-c2ccco2)c(-c2ccco2)c1C#N (stereo not drawn)	14	10
COc1ccc(C=NNC(=O)CC2C(=O)NN=C3c4ccccc4N=CN32)cc1OC (stereo not drawn)	11	5
CN(C)CC1CN(CC(O)COCc2ccco2)CCO1 (stereo not drawn)	5	3
CCc1[nH]nc(C(=O)N2CCOC(CCCC(C)C)C2)c1C (stereo not drawn)	5	2
N#Cc1c(Cl)nsc1NCC1CCN(c2ccc(F)c(F)c2)C1 (stereo not drawn)	-20&-6	-22
CC(NC(=O)c1cc(-c2ccccc2)nc2c1cnn2C(C)C)c1ccc(S(C)(=O)=O)cc1 (stereo not drawn)	-6	-4
Nc1nc(-c2cc3ccccc3oc2=O)nc2c1c(=O)oc1ccccc12	2	-1
CCC(C)NC(=O)CN1CCc2sccc2C1c1cccs1 (stereo not drawn)	13	10
O=C1Cc2cc(S(=O)(=O)Nc3ccc4c(c3)CCC4)ccc2N1	6	5
COC(=O)Cc1c(C)n[nH]c1C	3	10
CCC(C(=O)Nc1cc(-c2cn3nc(OC)ccc3n2)ccc1F)c1ccccc1 (stereo not drawn)	-8	-11
Cc1cc(C)n(CCCN(C)c2nc(-c3ccccc3)nc3c2CCNC3)n1	0	0
COCC(=O)NCC1=CCCN(Cc2ccc3ccccc3n2)C1	2	-4
CCc1ccccc1NC(=O)C(=O)N1CCN(C)C2(CCN(C)CC2)C1	21	8
CC(C)C(C)N(Cc1cc(NC(=O)c2cccc(F)c2)ccc1N(C)C)C(=O)NC(C)(C)C (stereo not drawn)	0	6
CC(C)OCCCNC(=O)c1ccc(-c2cc(-c3ccc4c(c3)OCCO4)n[nH]2)cc1	6	2
Fc1ccc(C2CC(c3ccco3)=Nc3ccccc3S2)cc1 (stereo not drawn)	12	7
O=c1[nH]c(=S)[nH]nc1Cc1ccc(Cl)c(Cl)c1	-10&0	-13&-2
Cn1c(=O)c(-c2ccccc2)c(O)c2ccccc21	9	9
CSc1nc(-c2ccccc2)[nH]c1S(=O)(=O)c1ccccc1	1	0
CCCNC(=O)C1(C)CCN1C(=O)C1(c2ccccc2)CCCC1 (stereo not drawn)	16	20

Additional structures
SMILES	NPYLR7 agonist	NPYLR7 agonist max-min
COc1cccc(-c2cn[nH]c2C2CCN(C(=O)CN3CCOC3=O)CC2)c1	4	0
CC(C)NC(=O)CN1CCCN(C(=O)CCc2cc(F)ccc2F)CC1	3	-1
CCc1nc2c(OCc3ccc(C(=O)N(C)C)cc3)cccn2c1N(C)C(=O)c1cccc(OC)c1	-7	-8
c1coc(CNc2ccnc3c(-c4cccc5ccccc45)cnn23)c1	-1	-3
Cc1ccc(C2c3cccn3CCCN2Cc2ccc(O)cc2)cc1C (stereo not drawn)	10	22
CCN1C(=O)[C@H]2[C@@H](c3csc(C(C)=O)c3)N[C@@](CC)(C(=O)OC)[C@H]2C1=O	-1	-7
Cc1ccc2oc(-c3ccc(NC(=O)c4ccc(F)cc4)c(C)c3)nc2c1	10	7
Cc1ccc(C)c([C@@H]2C[C@H]3CN(C4CCCC4)C(=O)[C@]34CCCN24)c1	4	0
CC(C)N(CC(=O)N(Cc1ccc2c(c1)OCO2)Cc1ccco1)C(=O)Nc1ccc(Cl)c(Cl)c1	13	10
CC1ON=C(c2ccccn2)N(C)C1=O (stereo not drawn)	0	-1
O=C(Cn1nc(-c2cccs2)c2sc(N3CCOCC3)nc2c1=O)NCc1ccco1	1	-2
CN(CC(=O)Nc1cnn(CC(F)(F)F)c1)S(C)(=O)=O	2	1
CCCC(=O)N1CCN(c2ncnc3c2nnn3-c2ccccc2)CC1	-11	-18
Cc1cc(=O)[nH]c(NN=Cc2c(C)oc3ccccc23)n1	2	-1
CCOc1ccc(N2C(=O)NC(=O)/C(=C\c3ccc(O)cc3)C2=O)cc1	4	-3
CN(C)c1ccc(CNC(=O)C2Cc3c(-c4cccc(C(N)=O)c4)ccnc3O2)cc1 (stereo not drawn)	-16	-14
Cc1cc(-n2cccn2)ccc1CN1CCC(CO)(CC2CCCCO2)CC1 (stereo not drawn)	6	3
Cc1cc(Cl)ccc1C(=O)N1CC[C@@H]2CC[C@H](C1)N2C	1	-1
